Screening results as filed in PubChem.
CDC25B CDK2 inh: primary biochemical HTRF screen for blockers of M-phase inducer phosphatase 2 binding to CDK2/cyclin A; z-score (no concentration beside the values); HTRF CDC25B-CDK2/CyclinA binding, anti-His/anti-Flag; hits give high values; 94,000 compounds, 0.72% hits;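 also: score is relative to mean and SD of negative controls; strong numbers were not always called active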
HIV TAR-Tat: TAR RNA-Tat peptide displacers, HIV-1, primary screen, biochemical, FRET, FAM/TAMRA-labeled Tat; HIV-1 TAR RNA, Tat peptide displacement FRET; hits give high values; z-score (concentration not given with the values); 100,000 compounds, 0.6% hits;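 also: score is relative to mean and SD of negative controls; some compounds called inactive have numbers as strong as hits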
Active calls of the source: *; . = no result given.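 The calls were made as follows: active = z-score from 3 up in half or more of its runs; inactive = the rest.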

SMILES	CDC25B CDK2 inh	HIV TAR-Tat
Cc1ccc(C)c(CN2C(=O)N(c3ccc(C)c(Cl)c3)C3CS(=O)(=O)CC32)c1 (configuration not stated)	.	0.26
Cc1oc2ncnc(N3CCOCC3)c2c1C(=O)NCCCN1CC(C)CC(C)C1 (configuration not stated)	.	1.36
CCn1nc(C)c(CNS(=O)(=O)c2cccs2)c1C	.	-0.63
N/C(Cn1ccc(C(F)(F)F)n1)=N\OC(=O)Nc1ccc(SC(F)(F)F)cc1	-1.51	.
NC(=O)c1c(NC(=O)c2cc([N+](=O)[O-])nn2Cc2ccccc2)sc2c1CCCC2	0.47	.
CC(C)(C)C(=O)NC(C(N)=O)=C(Cl)Cl	-1.87	.
c1cncc(-c2nc3ccccc3s2)c1	0.37	1.32
CC(C)(C)C1CCc2c(sc3nc(CCC(=O)NCc4ccc5c(c4)OCO5)[nH]c(=O)c23)C1 (configuration not stated)	.	-0.23
CC1(C)CC(=O)C(C(C2=C(O)CC(C)(C)CC2=O)c2ccc([N+](=O)[O-])s2)C(=O)C1 (configuration not stated)	-1.59	.
N#Cc1c(-c2ccco2)cc(-c2ccc(Br)cc2)nc1N	-0.1	-0.61
CC(C)c1ccc2occ(CC(=O)N(Cc3ccc(N(C)C)cc3)C3CCS(=O)(=O)C3)c2c1 (configuration not stated)	2.41	0.69
Cn1cnnc1S/C=C/C(=O)c1ccc(F)cc1	-2.43	.
CCN1C2=C(C(=O)CCC2)C(c2cc(Br)c(O)c(OC)c2)C2=C1CCCC2=O	-2.49	1.19
CCOc1cc(C)c(Cl)cc1S(=O)(=O)n1ccnc1C	-1.34	-0.33
COc1nc(-c2ccccc2)ccc1-c1noc(-c2ccncc2)n1	-0.43	-0.75
CCC(C)n1nnc2cc(S(=O)(=O)N3CCC(C(=O)O)CC3)ccc21 (configuration not stated)	0.21	2.78
CC1Cc2ccccc2N1S(=O)(=O)c1ccc2[nH]c(=O)ccc2c1 (configuration not stated)	.	2.35
CC1Cc2ccccc2N1S(=O)(=O)c1ccc2c(c1)NC(=O)CCS2 (configuration not stated)	.	0.67
COC(=O)C1=C(C)NC(=O)NC1c1cccc(Br)c1 (configuration not stated)	-0.53	.
CCC(C)C(NC(=O)C1CCC(C)CC1)C(=O)Nc1cccc(C)n1 (configuration not stated)	-0.28	-0.96
CCc1ccc(C2C(C#N)=C(N)OC3=C2C(=O)CCC3)cc1 (configuration not stated)	-0.74	.
CCCCCCc1nc2c(=O)n(C)c3ccccc3c2o1	-1.94	4.16
Cc1nc2ccccc2n(CC(=O)N2CCN(C(=O)c3ccco3)CC2)c1=O	.	1.01
CSc1n[nH]c(C23CC4CC(CC(C4)C2)C3)n1	0.76	.
O=C(c1ccc(N2C(=O)CCS2(=O)=O)cc1)N1CCN(Cc2ccc3c(c2)OCO3)CC1	-1.93	0.21

The closing 3 entries of the part above open the next one.
SMILES	CDC25B CDK2 inh	HIV TAR-Tat
Cc1nc2ccccc2n(CC(=O)N2CCN(C(=O)c3ccco3)CC2)c1=O	.	1.01
CSc1n[nH]c(C23CC4CC(CC(C4)C2)C3)n1	0.76	.
O=C(c1ccc(N2C(=O)CCS2(=O)=O)cc1)N1CCN(Cc2ccc3c(c2)OCO3)CC1	-1.93	0.21
COC(=O)c1ccc(CSc2nc3ccncc3n2CC(=O)N2CCCC2)cc1	-0.98	1.45
O=S1(=O)CCC(NS(=O)(=O)c2cccc3nonc23)C1 (configuration not stated)	-1.76	.
Cc1nc2sccn2c(=O)c1S(=O)(=O)NCCC1=CCCCC1	0	0.54
COc1ccc2c(c1)CC(C(=O)NCCN(C)C1CCCCC1)CO2 (configuration not stated)	.	0.3
CC(C)Cn1c(=O)c2sccc2n2c(CCC(=O)N3CCN(C(=O)c4ccco4)CC3)nnc12	.	0.68
Cc1cc(O)ccc1N1CC(O)=C(c2nc3ccccc3n2C)C1=N	-1.62	0.41
CCOC(=O)c1c(C)[nH]c(NC(=O)Nc2ccc(Br)cc2)c1C	-0.87	-0.57
CC(=O)N1CCOc2cc(S(=O)(=O)N3CCCC3c3cc(C)no3)ccc21 (configuration not stated)	.	2.43
CSc1nnc(NC(=O)Cc2coc3cc(C)ccc23)s1	-3.6	2.01
COc1ccc(C2C(C#N)=C(N)OC3=C2C(=O)CC(C)(C)C3)cc1COc1ccccc1C (configuration not stated)	-1.05	.
Cc1cc(S(=O)(=O)Nc2ccc3c(c2)oc(=O)n3C)ccc1F	.	1.11
c1ccc(Cn2ncc3c2ncn2nc(-c4ccncc4)nc32)cc1	0.56	3.58
CC1=C(c2ccc(C(C)C)cc2)S(=O)(=O)N(CC(=O)Nc2cc(C)ccc2C)C1=O	.	0.2
Cc1ccc(S(=O)(=O)NCCc2nnc3ccc(SCc4ccccc4Cl)nn23)cc1	.	1.22
Cc1[nH]c2ccccc2c1C1(O)C(=O)N(CCCc2ccccc2)c2ccccc21 (configuration not stated)	-1	0.56
Fc1ccc(N2CCN(c3ncnc4c3cnn4-c3cccc(Cl)c3)CC2)cc1	.	2.4
CCN1CCN(CCNC(=O)CN2C(=O)CSc3cccn3-c3ccccc32)CC1	.	1.29
O=C1c2[nH]nc(-c3ccccc3O)c2C(c2cccc(Cl)c2)N1CCO (configuration not stated)	-0.73	0.58
COC(=O)c1ccccc1NC(=O)c1ccc(Oc2cc(Cl)cc(Cl)c2)o1	-0.92	.
Cc1cccc2c1-c1sc(C(=O)N3CCc4ccccc43)cc1CO2	-1.22	0.91
Cc1cc(C)c2oc(-c3cc(N)ccc3Cl)nc2c1	-0.12	-9.13
O=c1c2cn(Cc3ccccc3F)c3ccc(F)cc3c-2nn1Cc1ccccc1F	.	0.43
O=c1ccc(N2CCN(c3ccc(F)cc3)CC2)n[nH]1	-1.28	0.06
CCOc1ccc(NC2=NS(=O)(=O)C(c3ccc(Cl)cc3)=C2C)cc1	-1.41	0.97
CC(C)CNS(=O)(=O)C1CCS(=O)(=O)C1 (configuration not stated)	-1.03	-0.68
(list continues)
SMILES	CDC25B CDK2 inh	HIV TAR-Tat
CCCCN(CC)CCNC(=O)Nc1cn(C)c(=O)c2ccccc12	.	-0.35
O=C1CSc2ccc(S(=O)(=O)NCc3ccco3)cc2N1	.	1.7
N#Cc1cccc(C(=O)Cc2cccc(Oc3ccccc3)c2)c1	-3.04	.
COCCNC(=O)Cn1nc(C)n2c(cc3occc32)c1=O	-0.29	1.75
CCOC(=O)c1c(NC(=O)CN2CCCCCC2)sc2c1CCCC2	0.42	.
CCCCNC(=O)c1cc2n(n1)CC(C)(C(=O)NC1CCCC1)N(CC)C2=O (configuration not stated)	.	0.08
CCOC(=O)c1sc(NC2=NS(=O)(=O)c3ccccc32)c(C(=O)OCC)c1C	0.3	-1.92
Cn1c(=O)c2c(nc(CN3CCN(c4ccccc4)CC3)n2CC(=O)C(C)(C)C)n(C)c1=O	-0.65	0.63
O=C(c1cnc2n(c1=O)CCS2)N1CCN(c2ccccc2F)CC1	-0.35	.
COC(=O)c1sc(-n2cccc2)c(C(=O)OC)c1C	.	-8.63
C=CCN1CCc2c(cc(O)c(O)c2Cl)C(c2ccccc2)C1 (configuration not stated)	0.43	.
O=S(=O)(c1ccc(Cl)cc1)c1nc(-c2cccs2)oc1N1CCCCC1	-1.96	-0.52
FC(F)(F)Oc1ccc(OCc2n[nH]c(=S)o2)cc1	-0.68	.
CC1(C)C(=O)Nc2ccc(S(=O)(=O)N3CCN(c4ccccc4F)CC3)cc21	.	1.56
CCN(CC#CCC1(O)c2ccccc2-c2ccccc21)CCO	-0.02	-0.04
COCCN(CC(O)Cn1c2ccccc2c2ccccc21)S(=O)(=O)c1ccc(F)cc1 (configuration not stated)	0.54	0.74
COc1cc(NC(=O)C(C)(C)C)ccc1Br	-1.73	.
O=C1c2ccccc2-c2onc3c(N4CCCCC4)cc(NCCN4CCCC4)c1c23	-0.44	0.1
CCOc1cccc2c1Oc1nc(-c3cccc(OC(C)C)c3)[nH]c(=O)c1C2	-1.91	2.24
Cc1nn2c(=O)cc(CSc3n[nH]c(N)n3)nc2s1	.	1.36
Cc1ccc(Oc2nc3ccccc3n3c(C)nnc23)cc1C	0.64	.
COc1ccccc1OCC(=O)N(Cc1cccs1)C1CCS(=O)(=O)C1 (configuration not stated)	-0.7	0.58
CCCc1nc(SCc2cc(=O)c3cc(C)cc(C)c3[nH]2)n[nH]1	.	-0.47
COC(=O)c1ccc(Oc2ccc(Cl)cc2Cl)o1	-1.46	.
Fc1cccc(Cl)c1CN1CCN(CCCNc2nccc(C(F)(F)F)n2)CC1	-2.52	.
(continued)
SMILES	CDC25B CDK2 inh	HIV TAR-Tat
CN(Cc1ccco1)C(=O)c1ccc(CNS(=O)(=O)c2ccc(Br)cc2)cc1	-0.3	.
CCn1nnc2sc(-c3ccccc3)cc2c1=O	2.04	0.9
Cc1ccc(S(=O)(=O)NC2=NCN(CCc3cccs3)CN2)cc1	-0.27	0.9
Cc1cccc(C)c1Nc1nnc(C(C)(C)C)c(=O)[nH]1	-0.63	.
COc1ccc2nc3oc(C(=O)Nc4ccc(F)cc4F)cc3cc2c1	-2.3	.
O=c1c(NCCC2=CCCCC2)nccn1-c1ccc(F)c(Cl)c1	.	-0.88
CCOC(=O)c1noc2nc(C)n(Cc3nc(-c4ccc(OCC)cc4)oc3C)c(=O)c12	.	0.23
O=C(CSc1nnc(-c2cccnc2)o1)Nc1ccc2c(c1)OCO2	-2.31	1.99
O=C(c1cc2ccsc2[nH]1)N1CCC(C(=O)N2CCCC2)CC1	.	1.42
CC(C)(C)NC(=O)NCCO	-0.34	.
Cc1[nH]nc2c1C(c1ccccc1Cl)N(c1ccc(Br)cc1)C2=O (configuration not stated)	.	0.18
CC1CC(NS(=O)(=O)c2cc3c4c(c2)CC(=O)N4CCC3)CC(C)(C)C1 (configuration not stated)	.	1.24
CCc1nnc(SCc2nc(-c3ccccc3Cl)oc2C)c2cc3occc3n12	.	2.92
Cc1c(C)c2c(c(C)c1O)CCC(C)(C(=O)O)O2 (configuration not stated)	.	0.49
Cc1cc2n(n1)CCCN2C(=O)Nc1ccc(F)c(Cl)c1	.	0.73
COc1ccccc1C1NC(=O)c2c(sc3c2CCN(C)C3)N1 (configuration not stated)	4.5*	-3.12
O=C(CN1C(=O)COc2ccc(S(=O)(=O)N3CCOCC3)cc21)NCc1cccs1	.	0.74
CCN1CCCC(OC(=O)C(c2ccccc2)c2ccccc2)C1 (configuration not stated)	.	1.21
CCOC(=O)C1CCN(c2cc(NCCCC(=O)O)c3c4c(onc24)-c2ccccc2C3=O)CC1	14.2*	24.4*
CCC(C)NC(=O)C1CCN(S(=O)(=O)c2ccc3c(c2)CC(C)N3C(=O)C2CC2)CC1 (configuration not stated)	.	0.03
CN(CC(=O)N1CCCCC1)S(=O)(=O)c1ccc2[nH]c(=O)ccc2c1	.	0.72
CC1CCN(C(=O)C(C(=O)c2ccc(Br)cc2)n2ccccc2=O)CC1 (configuration not stated)	1.83	-1.94
O=C(O)c1nc(Nc2ccc(F)cc2)c2ccccc2n1	-0.34	-0.47
O=C(Nc1ccc2c(c1)OCCO2)C(=S)NCc1ccco1	-1.49	.
Cn1c(SCc2ccc(F)cc2)nc(=O)c2c1NC(=O)CC2c1cc(F)cc(F)c1 (configuration not stated)	-1.28	1.2

Full records as entered above. Screens in order: CDC25B CDK2 inh | HIV TAR-Tat
O=C(c1cc2ccsc2[nH]1)N1CCC(C(=O)N2CCCC2)CC1 across the screens: . | 1.42
O=C(CSc1nnc(-c2cccnc2)o1)Nc1ccc2c(c1)OCO2 across the screens: -2.31 | 1.99
COc1ccc2nc3oc(C(=O)Nc4ccc(F)cc4F)cc3cc2c1 across the screens: -2.3 | .
CN(Cc1ccco1)C(=O)c1ccc(CNS(=O)(=O)c2ccc(Br)cc2)cc1 across the screens: -0.3 | .
CCOC(=O)c1noc2nc(C)n(Cc3nc(-c4ccc(OCC)cc4)oc3C)c(=O)c12 across the screens: . | 0.23

Following part.
SMILES	CDC25B CDK2 inh	HIV TAR-Tat
CCC(=O)OCc1cc(=O)n2ccsc2n1	.	0.83
Clc1cccc(Nc2cnc3ccccc3n2)c1	.	0.38
Cc1ccc(-c2csc3c2ncn2c(=O)n(CC(=O)Nc4ccc5c(c4)CCC5)nc32)cc1	.	1
CC1CCc2nn(CC(=O)NCCCOC(C)C)cc2C1 (configuration not stated)	-2.55	.
CC(C)(C)c1ccc(C(=O)Nc2ccc3oc(-c4ccncc4)nc3c2)cc1	-1.41	.
O=C(O)CCC(=O)N1CCN(c2nc(-c3ccccc3)c3cc(Br)ccc3n2)CC1	-0.78	1.32
CN(c1ccc2nc3ccccc3c(=O)n2n1)C1CCCCC1	0.54	0.64
COc1ccc(C(=O)c2oc3ccc(Cl)cc3c2N)cc1	1.05	-1.04
O=C1Cc2cc(S(=O)(=O)NC3CCCCC3)cc3c2N1CCC3	.	2.9
Cc1ccc(-c2noc(COc3ccc(Cl)cc3C)n2)cc1	-0.38	0.16
CCOCCOC(=O)C1=C(C)NC2=C(C(=O)CC(c3ccccc3)C2)C1c1ccc(F)cc1 (configuration not stated)	0.11	0.6
Cc1[nH]nc2cccc(F)c12	-1.93	.
CCOC(=O)N1CCC(NS(=O)(=O)c2ccc3c(c2)CCN3C(C)=O)CC1	-2.01	1.39
CC(C)c1nnc(NC(=O)c2cc(-c3cccs3)on2)s1	-1.88	0.86

Quoted from the listing.
CDC25B CDK2 inh result of CCOCCOC(=O)C1=C(C)NC2=C(C(=O)CC(c3ccccc3)C2)C1c1ccc(F)cc1 (configuration not stated) is entered as 0.11
CDC25B CDK2 inh result of CC1CCc2nn(CC(=O)NCCCOC(C)C)cc2C1 (configuration not stated) is entered as -2.55
CDC25B CDK2 inh result of Cc1[nH]nc2cccc(F)c12 is entered as -1.93
HIV TAR-Tat result of O=C1Cc2cc(S(=O)(=O)NC3CCCCC3)cc3c2N1CCC3 is entered as 2.9
CDC25B CDK2 inh result of COc1ccc(C(=O)c2oc3ccc(Cl)cc3c2N)cc1 is entered as 1.05
HIV TAR-Tat result of O=C(O)CCC(=O)N1CCN(c2nc(-c3ccccc3)c3cc(Br)ccc3n2)CC1 is entered as 1.32

Random draw from the library; 0.87% or so of the library scored in one or more.
